HIV Env fusion – inhibitors of HIV-1 Env-driven cell-cell fusion, primary screen, HeLa-JRFL effector, CEM21 target cells, luciferase. inhibition, % at 12.3 µM. 360,000 compounds, 1.1% hits. AID 651610, 2012;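 active = mean replicate inhibition score of at least 50 and every replicate individually at or above 50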;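 also: 0% = plate neutral controls and 100% = maraviroc near 300 nM; one replicate is shown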
UUG fidelity – modulators of yeast start codon fidelity, primary screen, whole organism, S. cerevisiae, single point, plate reader; AID 602363, 2012; 350,000 compounds, 0.13% hits; activity score, % at 18.7 µM; S. cerevisiae UUG-firefly luciferase reporter, luminescence/redox ratio;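 active = replicate mean at a twofold rise or more, about +100% in these data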;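 also: firefly luciferase made from a UUG start codon reports start codon fidelity; reporter light over untreated wells divided by growth signal over untreated wells; some hits fall short of that in this replicate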
Starred values were filed as active, the others as inactive; [ ] = another dose, or the depositor's remark.

Screens in order: HIV Env fusion, UUG fidelity
COCCNC(=O)C[C@@H]1C[C@@H]2c3cc(NC(=O)c4cccnc4)ccc3O[C@@H]2[C@H](CO)O1
 : -6[16.7 µM], -3
C[C@@H]1CCCCO[C@@H](CN(C)C(=O)c2ccccc2)[C@H](C)CN([C@H](C)CO)C(=O)c2cc(NS(C)(=O)=O)ccc2O1
 : -3[16.7 µM], 9
CO[C@H]1CN(C)C(=O)c2cc(NC(=O)C3CC3)ccc2OC[C@@H](C)N(C(=O)Cc2ccccn2)C[C@H]1C
 : -2[16.7 µM], 12
C[C@@H]1CN([C@@H](C)CO)C(=O)c2cccc(NS(=O)(=O)c3cccs3)c2O[C@H]1CN(C)S(=O)(=O)c1ccc(Cl)cc1
 : 12[16.7 µM], -4
COc1ccc(NC(=O)Nc2ccc3c(c2)CC(=O)N([C@@H](C)CO)C[C@H](C)[C@@H](CN(C)S(=O)(=O)c2ccc(F)cc2)O3)cc1
 : 18[16.7 µM], 4
C[C@@H]1CN([C@H](C)CO)C(=O)Cc2cc(NS(=O)(=O)c3cn(C)cn3)ccc2O[C@@H]1CN(C)S(=O)(=O)c1ccc(Cl)cc1
 : 6[16.7 µM], -7
CC(=O)N[C@H]1C=C[C@H](CC(=O)NCc2ccc(Cl)cc2)O[C@H]1CO
 : 10[16.7 µM], -15
CNC[C@@H]1Oc2c(NC(=O)C3CCOCC3)cccc2C(=O)N([C@@H](C)CO)C[C@@H]1C
 : 8[16.7 µM], -11
COCC#Cc1cnc2c(c1)C(=O)N([C@@H](C)CO)C[C@@H](C)[C@@H](CN(C)Cc1ccccc1F)O2
 : 16[16.7 µM], 22
C[C@@H]1CCCCO[C@@H](CN(C)Cc2ccccc2)[C@@H](C)CN([C@H](C)CO)C(=O)c2cc(NC(=O)NC3CCCCC3)ccc2O1
 : 8[16.7 µM], 7
C[C@H](CO)N1C[C@H](C)[C@H](CN(C)C)Oc2cc(C#Cc3cccc(F)c3)ccc2S1(=O)=O
 : 27[16.7 µM], 11
CCC(=O)N(C)C[C@H]1Oc2cc(C#CC(C)C)ccc2S(=O)(=O)N([C@H](C)CO)C[C@H]1C
 : 13[16.7 µM], 1
C[C@@H]1CN([C@H](C)CO)C(=O)c2cccc(NS(=O)(=O)c3ccc(Cl)cc3)c2O[C@H]1CN(C)Cc1ccc(-c2ccccc2)cc1
 : -3[16.7 µM], -1
C[C@@H]1CN([C@@H](C)CO)C(=O)c2cc(C#CC3(O)CCCC3)cnc2O[C@@H]1CN(C)S(=O)(=O)c1ccc(F)cc1
 : 3[16.7 µM], 9
C[C@@H]1CCCCO[C@H](CN(C)C(=O)Nc2ccc(F)cc2)[C@@H](C)CN([C@@H](C)CO)C(=O)c2cc(NC(=O)CCC(F)(F)F)ccc2O1
 : -98[16.7 µM], 7
COC(=O)C[C@@H]1C[C@H]2c3cc(NC(=O)Cc4ccncc4)ccc3O[C@H]2[C@H](CO)O1
 : 16[16.7 µM], -11
Cc1ccccc1-c1ccc2c(c1)O[C@@H](CN(C)C(=O)C1CC1)[C@H](C)CN([C@@H](C)CO)S2(=O)=O
 : -46[16.7 µM], 0
COc1ccc(S(=O)(=O)N[C@@H]2CC[C@@H](CC(=O)NCCc3ccncc3)O[C@H]2CO)cc1
 : -16[16.7 µM], 7
CC(C)C#Cc1cnc2c(c1)C(=O)N([C@H](C)CO)C[C@@H](C)[C@@H](CN(C)C(=O)CC1CC1)O2
 : -26[16.7 µM], -6
C[C@@H]1CCCCO[C@H](CN(C)S(=O)(=O)c2ccccc2)[C@@H](C)CN([C@H](C)CO)C(=O)c2cc(NC(=O)NC3CCCCC3)ccc2O1
 : 5[16.7 µM], -7

Shown as labelled records: entries from further up
canonical_smiles: C[C@@H]1CN([C@@H](C)CO)C(=O)c2cccc(NS(=O)(=O)c3cccs3)c2O[C@H]1CN(C)S(=O)(=O)c1ccc(Cl)cc1
  HIV Env fusion = 12[16.7 µM]	UUG fidelity = -4

canonical_smiles: COc1ccc(NC(=O)Nc2ccc3c(c2)CC(=O)N([C@@H](C)CO)C[C@H](C)[C@@H](CN(C)S(=O)(=O)c2ccc(F)cc2)O3)cc1
  HIV Env fusion = 18[16.7 µM]	UUG fidelity = 4

canonical_smiles: C[C@@H]1CN([C@H](C)CO)C(=O)Cc2cc(NS(=O)(=O)c3cn(C)cn3)ccc2O[C@@H]1CN(C)S(=O)(=O)c1ccc(Cl)cc1
  HIV Env fusion = 6[16.7 µM]	UUG fidelity = -7

Next entries follow.
Screens in order: HIV Env fusion, UUG fidelity
Cc1noc(C)c1S(=O)(=O)N(C)C[C@H]1OCCCC[C@@H](C)Oc2ccc(NS(=O)(=O)c3ccc(Cl)cc3)cc2C(=O)N([C@@H](C)CO)C[C@@H]1C
 : 7[16.7 µM], -12
C[C@@H]1CN([C@@H](C)CO)C(=O)c2cc(C#CCN(C)C)cnc2O[C@H]1CN(C)Cc1ccccc1
 : 17[16.7 µM], -9
O=C(C[C@@H]1C=C[C@H](NS(=O)(=O)c2ccc(F)cc2)[C@H](CO)O1)NCCN1CCCCC1
 : -18[16.7 µM], -5
C[C@@H]1CN([C@H](C)CO)C(=O)c2cc(NC(=O)c3ccncc3)ccc2O[C@@H](C)CCCCO[C@H]1CN(C)Cc1ccc(C(F)(F)F)cc1
 : 20[16.7 µM], 10
COCC(=O)N1C[C@@H](C)[C@@H](OC)CN(C)C(=O)c2cc(NC(=O)NC(C)C)ccc2OC[C@H]1C
 : 7[16.7 µM], 26
C[C@@H]1CN([C@@H](C)CO)C(=O)c2cc(NC(=O)c3ccccc3)ccc2O[C@@H](C)CCCCO[C@@H]1CN(C)S(=O)(=O)c1ccc(Cl)cc1
 : 13[16.7 µM], -13
O=C(Nc1ccc2c(c1)[C@H]1C[C@H](CC(=O)N3CCOCC3)O[C@H](CO)[C@H]1O2)NC1CCCCC1
 : -7[16.7 µM], 5
C[C@@H]1CN([C@@H](C)CO)C(=O)c2cc(-c3cccc(C#N)c3)cnc2O[C@H]1CN(C)C
 : -5[16.7 µM], -12
COc1ccc(S(=O)(=O)N[C@H]2CC[C@@H](CCn3cc(C(C)C)nn3)O[C@H]2CO)cc1
 : 18[16.7 µM], -6
COc1ccc(NC(=O)N(C)C[C@@H]2Oc3ccc(NC(=O)CCC(F)(F)F)cc3C(=O)N([C@@H](C)CO)C[C@H]2C)cc1
 : 10[16.7 µM], 6
CO[C@H]1CN(C)C(=O)c2ccc(NC(C)=O)cc2OC[C@H](C)N(C(=O)c2ccccn2)C[C@H]1C
 : 7[16.7 µM], -4
C[C@@H]1CN([C@H](C)CO)C(=O)c2cc(-c3cccnc3)cnc2O[C@@H]1CN(C)C(=O)Nc1ccc2c(c1)OCO2
 : -2[16.7 µM], 17
C[C@H](CO)N1C[C@H](C)[C@H](CN(C)Cc2ccccc2)OCCCC[C@H](C)Oc2ccc(NS(=O)(=O)c3cccs3)cc2C1=O
 : -58[16.7 µM], 31
COCC(=O)Nc1ccc2c(c1)C(=O)N(C)[C@H]1CC[C@H](CC(=O)NCc3ccc(OC)cc3)O[C@H]1CO2
 : -10[16.7 µM], -7
COCC(=O)Nc1ccc2c(c1)[C@@H]1C[C@@H](CC(=O)N3CCN(C)CC3)O[C@@H](CO)[C@@H]1O2
 : -17[16.7 µM], -5
Cn1cnc(S(=O)(=O)N[C@H]2C=C[C@@H](CC(=O)Nc3ccccc3)O[C@H]2CO)c1
 : 0[16.7 µM], -2
O=C(Nc1ccc(F)cc1)Nc1ccc2c(c1)[C@@H]1C[C@H](CC(=O)N3CCOCC3)O[C@@H](CO)[C@@H]1O2
 : 0[16.7 µM], 10
COc1ccc(NC(=O)N(C)C[C@@H]2Oc3ncc(C#CCN(C)C)cc3C(=O)N([C@@H](C)CO)C[C@@H]2C)cc1
 : -14[16.7 µM], 11
CCC(=O)Nc1ccc2c(c1)OC[C@@H](C)N(C(=O)NC1CCCCC1)C[C@@H](C)[C@H](OC)CN(C)C2=O
 : -7[16.7 µM], 7
C[C@@H]1CN([C@H](C)CO)C(=O)c2cccc(NC(=O)c3ccncc3)c2O[C@H]1CN(C)C(=O)Nc1ccc(C(F)(F)F)cc1
 : 20[16.7 µM], 12

Continuation.
Screens in order: HIV Env fusion, UUG fidelity
C[C@@H]1CCCCO[C@@H](CN(C)S(=O)(=O)c2cn(C)cn2)[C@@H](C)CN([C@H](C)CO)C(=O)c2cc(NS(C)(=O)=O)ccc2O1
 : 5[16.7 µM], -7
Cc1ccc(S(=O)(=O)N(C)C[C@H]2OCCCC[C@H](C)Oc3ccc(N(C)C)cc3C(=O)N([C@H](C)CO)C[C@H]2C)cc1
 : -24[16.7 µM], 2
CCC(=O)Nc1ccc2c(c1)C(=O)N(C)C[C@H](OC)[C@@H](C)CN(C(=O)c1ccccc1F)[C@@H](C)CO2
 : -80[16.7 µM], -10
C[C@@H]1CCCCO[C@@H](CN(C)S(C)(=O)=O)[C@@H](C)CN([C@H](C)CO)C(=O)c2cc(NC(=O)Nc3ccc(F)cc3)ccc2O1
 : -22[16.7 µM], -17
COc1ccc(NC(=O)N(C)C[C@H]2OCCCC[C@@H](C)Oc3ccc(NS(=O)(=O)c4ccc(Cl)cc4)cc3C(=O)N([C@@H](C)CO)C[C@@H]2C)cc1
 : 2[16.7 µM], 7
CC(=O)NCCCC[C@@H]1NC(=O)[C@@H]2C[C@H](C(=O)O)[C@H](c3ccc(O)cc3)N2C1=O
 : 5[16.7 µM], -9
CC(C)CC#Cc1ccc2c(c1)O[C@@H](CN(C)Cc1ccncc1)[C@H](C)CN([C@H](C)CO)S2(=O)=O
 : 30[16.7 µM], -7
COc1ccccc1CNC(=O)C[C@H]1C[C@H]2c3cc(NC(=O)Nc4ccccc4F)ccc3O[C@H]2[C@@H](CO)O1
 : 1[16.7 µM], 5
Cc1noc(C)c1NC(=O)N[C@@H]1CC[C@@H](CCNC(=O)C2CCCC2)O[C@@H]1CO
 : -4[16.7 µM], -7
COc1ccc(CN(C)C[C@H]2Oc3ccc(NC(=O)C4CC4)cc3CC(=O)N([C@@H](C)CO)C[C@H]2C)cc1
 : 11[16.7 µM], -1
Cc1noc(C)c1NC(=O)Nc1ccc2c(c1)C(=O)N([C@@H](C)CO)C[C@@H](C)[C@@H](CN(C)C(=O)NC1CCCCC1)OCCCC[C@@H](C)O2
 : 20[16.7 µM], 5
CCCNC(=O)Nc1ccc2c(c1)C(=O)N(C)C[C@H](OC)[C@H](C)CN(CCC)[C@@H](C)CO2
 : -7[16.7 µM], -7
C[C@@H]1CN([C@@H](C)CO)C(=O)c2cc(NC(=O)Nc3ccccc3)ccc2O[C@@H]1CN(C)Cc1ccc(C(=O)Nc2ccccc2N)cc1
 : -19[16.7 µM], 8
C[C@@H]1CN([C@@H](C)CO)S(=O)(=O)c2ccc(-c3cccc(C#N)c3)cc2O[C@@H]1CN(C)Cc1cccc(F)c1
 : -16[16.7 µM], 8
CC(=O)N(C)C[C@H]1Oc2ncc(C#Cc3ccccn3)cc2C(=O)N([C@H](C)CO)C[C@H]1C
 : -43[16.7 µM], 13
C[C@H]1CN([C@@H](C)CO)C(=O)Cc2cc(NS(=O)(=O)c3cccs3)ccc2O[C@@H]1CN(C)Cc1ccc(C(=O)O)cc1
 : 9[16.7 µM], -15
C/C=C/c1ccc2c(c1)O[C@H](CN(C)C(=O)CC1CC1)[C@H](C)CN([C@H](C)CO)S2(=O)=O
 : 10[16.7 µM], 2
COc1cccc(C(=O)Nc2ccc3c(c2)OC[C@@H](C)NC[C@@H](C)[C@@H](OC)CN(C)C3=O)c1
 : 7[16.7 µM], -6
CCC(=O)Nc1ccc2c(c1)C(=O)N(C)C[C@@H](OC)[C@H](C)CN(Cc1ccccc1)[C@@H](C)CO2
 : 4[16.7 µM], -6
Cc1ccc(S(=O)(=O)N[C@@H]2CC[C@@H](CC(=O)O)O[C@@H]2CO)cc1
 : 7[16.7 µM], -13

Remaining list, next part.
Screens in order: HIV Env fusion, UUG fidelity
COc1ccc(NC(=O)Nc2cccc3c2O[C@H](CN(C)Cc2ccc(Cl)c(Cl)c2)[C@H](C)CN([C@@H](C)CO)C3=O)cc1
 : -128[16.7 µM], 0
C[C@@H]1CN([C@@H](C)CO)S(=O)(=O)c2ccc(C3=CCCCC3)cc2O[C@H]1CN(C)S(C)(=O)=O
 : 21[16.7 µM], 32
C[C@@H]1CN([C@H](C)CO)C(=O)Cc2cc(NC(=O)Nc3ccccc3)ccc2O[C@@H]1CN(C)S(=O)(=O)c1ccccc1
 : 2[16.7 µM], -12
COCC#Cc1cnc2c(c1)C(=O)N([C@@H](C)CO)C[C@@H](C)[C@H](CN(C)Cc1ccc(-c3ccccc3)cc1)O2
 : 29[16.7 µM], 8
C[C@H]1CN([C@@H](C)CO)C(=O)c2cccc(NC(=O)Nc3ccc(C(F)(F)F)cc3)c2O[C@H]1CN(C)Cc1ccc(Oc2ccccc2)cc1
 : -11[16.7 µM], 5
C[C@@H]1CN([C@@H](C)CO)C(=O)c2cc(NC(=O)c3ccncc3)ccc2O[C@@H](C)CCCCO[C@@H]1CN(C)C(=O)Nc1cccc2ccccc12
 : 9[16.7 µM], 17
O=C(N[C@H]1CC[C@H](CCn2cc(C3(O)CCCC3)nn2)O[C@@H]1CO)C1CCCC1
 : 31[16.7 µM], 98
O=C(NCC[C@@H]1CC[C@H](NS(=O)(=O)c2ccccc2)[C@H](CO)O1)c1ccc2c(c1)OCO2
 : -8[16.7 µM], 10
Cc1ccc(S(=O)(=O)N[C@H]2CC[C@H](CC(=O)NCCc3ccncc3)O[C@@H]2CO)cc1
 : -6[16.7 µM], 10
C/C=C/c1cnc2c(c1)C(=O)N([C@H](C)CO)C[C@@H](C)[C@@H](CN(C)S(=O)(=O)c1ccccc1F)O2
 : 28[16.7 µM], -1

Screens (PubChem)

Some of the compounds tested. The share of hits here may be higher or lower than overall.
